Calb FLC = affects C. albicans growth with fluconazole; 300,000 compounds, 0.57% hits; C. albicans CaCi-2 (fluconazole-resistant clinical isolate) + fluconazole, Alamar Blue growth, 48 h; AID 1979; growth inhibition, % (concentration not given with the values);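 active means most replicates above 75%; inconclusive means exactly half above 75%; inactive means most below 75%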;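 further: all wells also contain fluconazole at 8 µg/ml as a sub-toxic cotreatment; 0% = median of DMSO wells and 100% = median of geldanamycin control wells; wells of about 8 µL received 7.5 nL stock; the first replicate is given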
RanGTP-Imp inh = inhibitors of RanGTP-importin-beta interaction, primary screen, biochemical, FRET, CFP-Ran, YFP-importin-beta, homogeneous; inhibition, % (test concentration not listed); cell-free CFP-Ran/YFP-importin-beta FRET ratio; 300,000 compounds, 1.1% hits; AID 2216;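 active means most replicates above 15%; inconclusive means exactly half above 15%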;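 further: 0% = DMSO wells and 100% = Ran loaded with GDP instead of GTP; wells of about 40 µL received 100 nL stock; the first replicate is given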
rRNA inh HTS = selective bacterial rRNA inhibition in E. coli; E. coli WT GFP vs humanized-ribosome RFP mutants, fluorescence, 24 h; stronger effect = lower value; DMSO median 0, no signal -100; 350,000 compounds, 1.6% hits; GFP signal change (wild-type ribosome), % (concentration not given with the values);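 active means significant combined selectivity score with lowered wild-type GFP, culture density cut under 30%, mutant RFP and density less affected; inactive means any of these conditions unmet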; further: one replicate is shown; some compounds called inactive have numbers as strong as hits
Bfl-1 A1 inh = inhibitors of the anti-apoptotic protein A1, read as caspase activation; caspase activation, % (concentration not given with the values); AID 2462; 330,000 compounds, 0.066% hits; MEF A1-2A-BIM cells, Caspase-Glo 3/7 luminescence, 3 h; percent of clofoctol response, vehicle zero;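 active means over half of replicate activation scores above 10%, or exactly half above 10 with the replicate mean above 10; inconclusive means replicate mean below 10 yet half the replicates above 10; inactive means over half of replicates below 10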;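 further: wells of about 30 µL received 50 nL stock; many hits fall short of the cut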
Beta apoptosis = beta cell apoptosis inhibition. INS-1E cytokine-induced death, ATP luminescence, 48 h; percent of positive-control rescue, neutral wells zero. protection from apoptosis, % (concentration not given with the values). 300,000 compounds, 0.8% hits;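 active means all replicates at 75% or more, or half of them and the mean; inconclusive means half reach 75% but not the mean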;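 further: 0% = cytokine-treated negative control wells and 100% = positive control rescue; higher means more ATP so stronger rescue from cytokine killing; wells of about 40 µL received 100 nL stock; the first replicate is given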
T cruzi repl = T. cruzi replication inhibition. 300,000 compounds, 1.4% hits. T. cruzi beta-gal in NIH3T3, luminescence, 90 h. AID 1885. inhibition, % (no concentration beside the values);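 active means mean inhibition across valid replicates above about 55%, limit read from the data; inconclusive means mean below that limit but half or more replicates reach it; inactive means mean below it, under half of replicates reach it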;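 further: signal also drops with host cell toxicity which is not excluded here; 0% = plate median of DMSO wells and 100% = zero luminescence signal; higher percent means less beta-gal luminescence so fewer parasites; stock transfer was 50 nL into about 50 µL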
MLL AF4-AF9 inh = inhibitors of human MLL-AF4/AF9 interaction; P42568; AlphaScreen, biotin-AF4 peptide binding to FLAG-AF9; inhibition, % at 10 µM; 350,000 compounds, 0.47% hits;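 active means every replicate reaching a set inhibition limit, whatever the replicate mean, cut at about 25% in these data; inconclusive means mean inhibition reaches that limit but some replicates miss it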;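 further: 0% = plate neutral control median and 100% = total signal loss; the record names both 10 and 1 µM as test concentration; the first replicate is given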
Target sequence (P42568 whole entry, looked up): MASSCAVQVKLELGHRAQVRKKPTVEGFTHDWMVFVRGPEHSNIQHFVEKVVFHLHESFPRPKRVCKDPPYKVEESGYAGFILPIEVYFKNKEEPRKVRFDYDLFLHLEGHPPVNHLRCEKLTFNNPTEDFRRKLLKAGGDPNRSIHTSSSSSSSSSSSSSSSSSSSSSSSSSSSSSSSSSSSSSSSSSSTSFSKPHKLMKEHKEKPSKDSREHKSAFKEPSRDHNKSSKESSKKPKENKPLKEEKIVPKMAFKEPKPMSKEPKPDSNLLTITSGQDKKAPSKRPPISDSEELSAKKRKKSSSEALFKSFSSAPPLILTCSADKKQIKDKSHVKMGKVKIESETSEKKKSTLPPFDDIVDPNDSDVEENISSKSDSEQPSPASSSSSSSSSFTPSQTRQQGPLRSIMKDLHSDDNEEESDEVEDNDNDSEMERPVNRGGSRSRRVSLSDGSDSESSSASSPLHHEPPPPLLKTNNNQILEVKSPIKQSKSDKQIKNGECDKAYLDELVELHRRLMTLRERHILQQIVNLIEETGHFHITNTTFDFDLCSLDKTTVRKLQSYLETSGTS
Vif TR-FRET = inhibitors of Vif binding to APOBEC3G peptide, primary screen, biochemical, TR-FRET, GST-Vif 1-94, biotin-A3G peptide, dose response retest (AID 1117319) | TR-FRET GST-Vif / biotin-A3G peptide binding; higher % means a stronger effect; test concentration not given here; strong numbers were not always called active | inhibition, %, or IC50 in µM where a hit was titrated | 260,000 compounds, 0.57% hits;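 active means above the screen mean plus three standard deviations and confirmed in dose response; inconclusive means results disagree or hit not tested in dose response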;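 further: Vif residues 1-94 fused to GST binding biotinylated APOBEC3G peptide 110-148; 0% = full assay without inhibitor and 100% = GST in place of GST-Vif; retest series ran down from 100 µM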
rRNA inh HTS OD600 = further read-out of rRNA inh HTS, marked with its call; OD600 change, %; measured here: OD600 growth;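 optical density of the mix in the first replicate; 0 = DMSO median and -100 = no signal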
rRNA inh HTS RFP = further read-out of rRNA inh HTS, marked with its call; RFP signal change, %; measured here: RFP humanized mutant strains;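 first replicate; 0 = DMSO median and -100 = no signal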
An asterisk follows results filed as active; ? = inconclusive; nt = no result given; & = joins results of further samples. Some of the compounds tested; rates above refer to the full screens.

SMILES | Calb FLC | RanGTP-Imp inh | rRNA inh HTS | rRNA inh HTS OD600 | rRNA inh HTS RFP | Bfl-1 A1 inh | Beta apoptosis | T cruzi repl | MLL AF4-AF9 inh | Vif TR-FRET
COc1cc2ccccc2cc1C(=O)OCC(=O)N(C)c1c(N)n(Cc2ccccc2)c(=O)[nH]c1=O | -3 | 2.6 | -17 | -15 | -1.4 | -0.3 | -1 | -6 | -1.3 | -5%
CCOC(=O)/C=c1\s/c(=C\c2sccc2C)c(=O)n1CC(=O)NCc1ccc(C)cc1 | -15 | -41 | 3 | -3 | -1.9 | 2.6 | 12 | 8 | 0.0 | 0%
CN(Cc1ccc2nsnc2c1)Cc1nc(Cc2cccc(F)c2)no1 | -11 | 0.8 | -13 | -13 | -3.4 | 0.7 | -12 | -3 | 5.0 | -11%
O=C(Nc1ccc(O)cc1)C1CCCN1S(=O)(=O)c1ccc(F)cc1 (centres undefined) | 6 | -1.5 | 4 | 9 | 0.2 | 0.1 | 4 | -11 | -0.2 | 21%
O=C(NCc1n[nH]c(=S)n1-c1ccc(Br)cc1)c1cccs1 | -19 | 1.9 | -6 | -2 | -0.6 | 0.2 | nt | 5 | -5.9 | -2%
COC(=O)c1sc2cc([N+](=O)[O-])cc(SCC(C)C)c2c1N | -4 | -25 | 5 | 14 | -5.1 | ? | 7 | 24 | 1.9 | 1%
CCCn1nnnc1NCc1ccc(CC)cc1 | -12 | -1.7 | 10 | 7 | 5.4 | 0.4 | -4 | 3 | -4.0 | nt
Oc1cccc(/C=N/NC(=S)NCCN2CCOCC2)c1O | 1 | 1.6 | 9 | 4 | -1.3 | -0.2 | 20 | 13 | -4.0 | 12µM*
O=CN1CCN(S(=O)(=O)c2ccc(Cl)c(C(=O)O)c2)CC1 | -5 | -2.5 | nt | nt | nt | 0.5 | -1 | -22 | -0.3 | 17%
CCOc1ccc(CCNC(=O)COC(=O)c2ccc(F)c(S(=O)(=O)N3CCOCC3)c2)cc1OCC | 13 | -2.2 | -3 | -5 | -0.6 | -0.3 | -2 | -7 | -18 | -1%
CC12CCC(C(=O)N(CSC(=S)N/N=C\c3ccccc3O)C1=O)C2(C)C (centres undefined) | 4 | -1.7 | nt | nt | nt | 0.7 | 24 | -45 | nt | 24%
Cc1ccc(F)cc1NCC(=O)Nc1ccc(Br)cc1 | -18 | 2.6 | nt | nt | nt | 0.3 | -6 | -10 | nt | 31%
Cc1nc(C(C)NC(=O)CCc2nnc(CCCc3ccccc3)o2)c(C)s1 (centres undefined) | 0 | 1.2 | 16 | 13 | 0.7 | -0.1 | 0 | 6 | -2.3 | -2%
O=C(COC(=O)c1ccc(O)cc1O)Nc1nnc(-c2ccccc2)o1 | 9 | 1.2 | 25 | -31 | -1.9 | 0.3 | 0 | -3 | 6.7 | 2%
COC(=O)C(C)Nc1cccc(Br)c1 (centres undefined) | -8 | -1.0 | -10 | -19 | -6.7 | 0.7 | 2 | -13 | -0.6 | 14%
O=C(Nc1cc(Br)ccc1O)c1cc(-c2ccc3c(c2)OCO3)on1 | 1 | 2.6 | 7 | 11 | -0.8 | -2.7 | -7 | 1 | 0.1 | nt
CC(C)NC(=O)CSc1nnc(CNC(=O)OC(C)(C)C)n1C | -1 | -2.3 | 11 | 8 | 3.3 | 0.0 | -4 | 4 | -1.4 | 0%
Cc1occc1-c1nnc(SCC(=O)NCC2CCCO2)n1C (centres undefined) | -5 | 1.8 | nt | nt | nt | -0.3 | -1 | -4 | nt | 4%
Cc1ccc(C)c(NC(=O)C2C3CCCC2C3c2ccccc2)c1 (centres undefined) | -1 | 1.6 | nt | nt | nt | 0.7 | 5 | 13 | nt | -1%
Cc1cccc(NCc2ccccc2O)n1 | 7 | 3.7 | nt | nt | nt | -2.4 | -6 | 1 | nt | -1%
CC(=O)N1CCN(c2nc(-c3cccs3)nc3ccccc23)CC1 | 1 | 3.7 | -24* | -2.2* | -1.4* | -0.8 | -3 | -10 | -1.5 | nt
Cc1c(C(=O)N2CCCc3ccccc32)sc2nc(-c3ccccc3)cn12 | 8 | 1.7 | -4 | -42 | -12 | 1.1 | 5 | 42 | -235 | nt
CN(C(=O)CSc1nnc(-c2ccc(F)cc2)n1C)C1CCS(=O)(=O)C1 (centres undefined) | nt | nt | 6 | 17 | -0.5 | 0.6 | -7 | nt | -1.6 | nt
CC(=O)N1CCOc2ccc(S(=O)(=O)N3CCC(C(=O)Nc4ccccc4F)CC3)cc21 | 0 | 3.7 | -1 | -6 | -1.0 | -0.7 | 6 | -13 | 0.0 | nt
Cc1nccn1CCc1n[nH]c(=S)n1Cc1ccccc1 | -2 | 2.4 | nt | nt | nt | 0.0 | 7 | -7 | nt | -5%
O=S(=O)(Nc1cc(F)ccc1F)c1cccc2nonc12 | 12 | -1.2 | -1 | 2 | -6.5 | -0.1 | 5 | 7 | -0.7 | 17%
COc1ccc(NS(=O)(=O)c2cc(NC(=O)CCNC(C)=O)ccc2N2CCOCC2)cc1 | 0 | -0.4 | 5 | 10 | -3.4 | 1.3 | -3 | -12 | 6.8 | -3%
Cc1cccc(NC(=O)NNC(=O)c2ccc(C)c([N+](=O)[O-])c2)c1 | 4 | 4.1 | 17 | 19 | 0.4 | -0.4 | 2 | 7 | -0.8 | 24%
O=C(CN1C(=O)NC2(CCCCC2)C1=O)N1CCN(S(=O)(=O)c2cccc([N+](=O)[O-])c2)CC1 | nt | nt | -8 | 10 | 2.8 | -1.1 | -2 | nt | 0.0 | -6%
Nc1ncccc1OCc1cccc(C(F)(F)F)c1 | -18 | 2.2 | -15 | -2 | 0.4 | -0.4 | -3 | 2 | 1.0 | 13%
O=[N+]([O-])c1nn(-c2ccc3c(c2)OCCO3)n(O)c1=NC1CCCCCC1 | 16 | -3.0 | nt | nt | nt | 0.5 | 27 | 59* | nt | 2%
CC(NC(=O)/C=C/c1ccc(Br)cc1)c1ccc(Cl)cc1 (centres undefined) | -3 | -2.7 | 17 | 15 | 1.7 | 0.9 | 1 | -2 | -1.0 | -4%
O=C(Nc1ccc(F)cc1F)Nc1ccc(F)cc1F | -55 | -4.8 | -22 | -36 | -5.8 | -3.7 | 2 | -42 | -5.7 | nt
CCOc1ccccc1NC(=O)COC(=O)C(Cc1ccccc1)NC(=O)c1ccco1 (centres undefined) | nt | nt | -6 | 1 | -0.6 | 0.5 | 0 | nt | -4.6 | 14%
NC(=O)c1ccc(NC(=O)CCc2nc3ccccc3s2)cc1 | 19 | 0.9 | 0 | -9 | 1.2 | -0.4 | -1 | -7 | -2.4 | nt
COc1ccc(S(=O)(=O)n2cnc3ccccc32)cc1OC | -1 | 0.8 | 4 | 6 | -1.6 | -0.5 | nt | -1 | -2.8 | nt
C=CCc1cccc2cc(C(=O)N3CCN(c4ccccn4)CC3)c(=O)oc12 | 48 | 2.7 | -10 | -14 | -2.9 | -0.2 | 0 | 0 | -5.5 | 3%
O=C(N/N=C/c1ccco1)c1csc2c1CCCC2 | -3 | -3.3 | 1 | 1 | 7.0 | -0.5 | -6 | -8 | 4.0 | ?
CCC1(c2ccccc2)NC(=O)N(CC(=O)NNC(=O)CCN2CCN(c3ccccc3)CC2)C1=O (centres undefined) | -8 | 2.4 | 12 | 8 | 0.9 | 3.3 | -7 | -6 | 3.2 | -1%
CCN(CC)CCNC(=O)C(C(=O)c1ccccc1)n1ccccc1=O (centres undefined) | -5 | -0.2 | nt | nt | nt | ? | -6 | -9 | nt | -1%
CCn1c(=O)[nH]c2ccccc2c1=O | -4 | 0.1 | nt | nt | nt | -0.4 | -3 | -10 | nt | -7%
COc1ccc(N(CC(=O)NC2CCCC2)C(=O)CCC(=O)Nc2cc(C)on2)c(OC)c1 | -5 | 2.4 | nt | nt | nt | 0.8 | -4 | -2 | nt | 18%
Cc1ccn2c(=O)c(C(=O)NCCCN3CCCC3=O)c(O)nc2c1 | 2 | 1.5 | 4 | 16 | -0.5 | 1.0 | -6 | -12 | -2.0 | nt
COC(=O)c1cc(OC)c(OC)cc1NC(=O)CCC1CCCC1 | 7 | 3.8 | nt | nt | nt | 0.2 | 1 | 3 | nt | -4%
COc1cccc(CCc2nnc(CCC(=O)N3CCCC3c3nccs3)o2)c1 (centres undefined) | -13 | -2.1 | 5 | -3 | -6.5 | -0.4 | 3 | -12 | 0.6 | -3%
CCOC(=O)c1[nH]c2ccccc2c1N=C(C)N(CC)CC | 17 | -4.9 | nt | nt | nt | 0.2 | 7 | 1 | nt | 14%
Cc1cc(C)c(NC(=O)c2ccc3c(c2)NC(=O)C(C)S3)c(C)c1 (centres undefined) | nt | nt | nt | nt | nt | 2.0 | 7 | nt | -0.8 | -7%
Cc1cccc2c1N(CCOc1ccccc1)C(=O)C2=O | -6 | 0.4 | 14 | 8 | 2.8 | 0.6 | -6 | -1 | -0.8 | -4%
O=C(NCc1ccccc1Cl)c1ccc2c(c1)SC1=NS(=O)(=O)CCN12 | 7 | 0.2 | -20* | -6.9* | 0.2* | 0.5 | -1 | 8 | -1.3 | nt
O=C(NCCCN1CCOCC1)c1ccc(Sc2ccc(Br)cc2)c([N+](=O)[O-])c1 | -2 | 8.0 | nt | nt | nt | 0.1 | 8 | 54 | nt | nt
O=C(CCc1nc2ccccc2[nH]1)N1CCN(C(=O)c2ccco2)CC1 | -4 | -2.4 | 3 | 6 | -0.7 | 0.0 | -1 | -4 | -1.0 | nt
COc1ccc(/C=N/Nc2ccc(C(=O)O)cc2)c(OC)c1OC | -5 | -5.2 | 1 | 2 | -1.6 | -3.0 | 3 | -6 | 0.6 | -6%
O=c1[nH]c(=O)n(Cc2ccco2)c2c1C(C(F)(F)F)(C(F)(F)F)N=C(c1ccc(F)cc1)N2 | -16 | -4.9 | nt | nt | nt | -0.4 | 102* | -36 | nt | -4%&-6%
O=C(CCN1C(=O)S/C(=C\c2ccc(Cl)cc2)C1=O)Nc1ccc(C(=O)O)cc1 | 0 | 0.0 | 5 | 7 | 0.3 | 0.2 | 1 | 15 | -0.2 | nt
O=C(CSc1n[nH]c(-c2ccccc2O)n1)NC1CCCCC1 | 2 | 6.2 | -7 | -18 | 0.8 | 0.3 | -1 | -2 | -3.1 | nt
O=C(CSc1ncnc2nc[nH]c12)NCCc1ccccc1 | -16 | ? | nt | nt | nt | -0.3 | -1 | -4 | nt | 1%
Cc1ccc(CNC(=O)CCNS(=O)(=O)c2ccc3c(c2)c(=O)n(C)c(=O)n3C)cc1 | -1 | 8.1 | nt | nt | nt | 0.2 | 5 | -21 | nt | ?
